Screening data: PubChem, several laboratories
UCH37 inh – inhibitors of human deubiquitinating enzyme UCH37. actives 0.33% (n = 330,000). purified proteasome/UCH37, Ub-AMC cleavage fluorescence. inhibition, % (concentration not given with the values). Q9Y5K5;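 active = mean of two replicates above 20%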;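 also: 0% = compound-free wells with enzyme and 100% = wells lacking proteasome; stock transfer was 100 nL into about 20 µL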
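Signal – fluorescence, ex 355 nm, em 460 nm · System – Proteasome-bound UCH37 · Input – 0.15 nM proteasome as dispensed · Timing – 30 min preincubation with enzyme, 25 min cleavage at room temperature · Read-out basis – percent inhibition of cleavage signal versus uninhibited and no-proteasome wells · Medium – Tris-HCl pH 7.4 with ATP-MgCl2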
FGF22 binding – binders of recombinant human FGF22 by thermal shift. Q9HCT0. SYPRO orange fluorescence; percent of sucrose octasulfate shift, DMSO zero. calls only at 9.99 µM. actives 1.5% (n = 340,000);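 active = melting point raised past a set limit in the mean and every replicate; three in four hits are not shown here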
Ecoli growth – E. coli growth inhibition; Escherichia coli growth, OD600, 23 h; active compounds read low; OD600 absorbance (concentration not given with the values); actives 0.21% (n = 330,000); AID 1053175;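 active = OD600 absorbance below the run mean of sample wells minus 3.6 SD, in any replicate, cut at about 0.56 in these data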;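 also: stock transfer was 300 nL into about 60 µL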
B2AR ag – activates human beta-2 adrenergic receptor causing internalization; Am2.2-beta2AR cells, FAP receptor internalization, flow cytometry; reference of the scale not given here; response, % (concentration not given with the values); actives 0.43% (n = 340,000); AID 504454;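 active = response above a set limit, near 3 SD of response in nonfluorescent compounds, cut at about 42% in these data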;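 also: stock transfer was 100 nL into about 11 µL; a reference agonist was the positive control; negative values mostly stem from fluorescent compounds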
Target sequence (P07550 whole entry, looked up): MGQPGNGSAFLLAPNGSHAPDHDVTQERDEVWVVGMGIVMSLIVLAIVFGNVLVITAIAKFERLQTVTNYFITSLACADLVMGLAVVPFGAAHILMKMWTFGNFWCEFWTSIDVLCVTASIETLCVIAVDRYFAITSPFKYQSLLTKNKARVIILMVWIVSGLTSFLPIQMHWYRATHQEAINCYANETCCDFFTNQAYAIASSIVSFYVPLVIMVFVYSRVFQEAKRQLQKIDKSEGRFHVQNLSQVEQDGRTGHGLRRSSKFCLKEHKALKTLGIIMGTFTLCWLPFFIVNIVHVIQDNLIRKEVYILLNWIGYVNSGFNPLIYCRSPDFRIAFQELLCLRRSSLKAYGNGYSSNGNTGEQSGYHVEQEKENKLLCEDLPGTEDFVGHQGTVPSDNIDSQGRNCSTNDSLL
ALR inh – human ALR oxidase inhibition via reduced H2O2. P55789. purified ALR, DTT oxidation, H2O2 HRP-luminol luminescence. inhibition, % (no concentration beside the values). actives 3.8% (n = 290,000). AID 485317;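 active = mean and each replicate at 75% or more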;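 also: stock transfer was 7.5 nL into about 7.5 µL; 0% = neutral wells and 100% = wells with inactivated enzyme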
Target sequence (P55789 whole entry, looked up): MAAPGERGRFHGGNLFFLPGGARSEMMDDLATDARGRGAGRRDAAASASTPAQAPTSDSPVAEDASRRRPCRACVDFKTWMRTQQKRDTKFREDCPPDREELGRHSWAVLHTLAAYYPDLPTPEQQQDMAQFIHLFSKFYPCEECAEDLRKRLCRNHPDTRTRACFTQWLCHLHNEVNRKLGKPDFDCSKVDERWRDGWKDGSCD
HNF4A DNA FP – change in binding of human HNF4 alpha to DNA. P41235. HNF4a-FITC DNA binding, fluorescence polarization, 1 h. activity change, % at 10 µM. actives 0.3% (n = 360,000). AID 1224865; in the data active = activity change above about 30%, passing the limit was not always enough;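 also: controls were the assay level and a saturating level of protein; the project sought stronger binding though the title names inhibitors; some compounds called inactive have numbers as strong as hits; positive values seem to mean higher polarization but the record does not say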
Target sequence (P41235 whole entry, looked up): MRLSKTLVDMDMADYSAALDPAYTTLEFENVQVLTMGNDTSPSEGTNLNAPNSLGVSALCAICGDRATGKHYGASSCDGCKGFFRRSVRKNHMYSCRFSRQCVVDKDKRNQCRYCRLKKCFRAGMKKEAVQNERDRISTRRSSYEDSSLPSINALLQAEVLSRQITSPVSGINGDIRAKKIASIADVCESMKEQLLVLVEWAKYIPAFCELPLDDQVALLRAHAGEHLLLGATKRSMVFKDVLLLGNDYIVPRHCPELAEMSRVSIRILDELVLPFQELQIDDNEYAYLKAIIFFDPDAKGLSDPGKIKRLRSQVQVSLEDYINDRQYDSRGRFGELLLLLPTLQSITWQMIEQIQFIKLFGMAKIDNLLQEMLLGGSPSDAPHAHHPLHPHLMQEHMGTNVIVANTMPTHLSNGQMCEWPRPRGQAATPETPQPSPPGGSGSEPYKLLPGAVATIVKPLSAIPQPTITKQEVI
Ecoli rRNA inh – inhibits bacterial ribosomal RNA function over humanized ribosomes; actives 1.6% (n = 350,000); E. coli WT GFP vs humanized-ribosome RFP mutants, fluorescence, 24 h; active compounds read low; DMSO median 0, no signal -100; GFP signal change (wild-type ribosome), % (concentration not given with the values);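 active = significant combined selectivity score with lowered wild-type GFP, culture density cut under 30%, mutant RFP and density less affected; inactive = any of these conditions unmet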; also: one replicate is shown; some compounds called inactive have numbers as strong as hits
Ecoli rRNA inh OD600 – further read-out of Ecoli rRNA inh, marked with its call; OD600 change, %; measured here: OD600 growth;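 optical density of the mix in the first replicate; 0 = DMSO median and -100 = no signal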
Ecoli rRNA inh RFP – also measured in Ecoli rRNA inh; calls as there; RFP signal change, %; measured here: RFP humanized mutant strains;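 first replicate; 0 = DMSO median and -100 = no signal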
Starred values were filed as active, the others as inactive; i = inactive; / = not tested or not shown; & = joins results of further samples. A portion of the library; count on the stated rates, not on these rows.

SMILES	UCH37 inh	FGF22 binding	Ecoli growth	B2AR ag	ALR inh	HNF4A DNA FP	Ecoli rRNA inh	Ecoli rRNA inh OD600	Ecoli rRNA inh RFP
CCC(C(=O)N1CCN(c2ncccn2)CC1)c1ccccc1 (stereo not drawn)	3.4	i	0.7	-14	-9	-2.6	8	3	-1.2
CCOC(=O)NC(=O)C(=CNNc1ncc(C(F)(F)F)cc1Cl)C(=O)NC(=O)OCC	-0.7	/	0.69	5	-12	0.8	9	7	1.9
CCCN1CCC(=NNC(=O)c2ccc(Br)o2)CC1	1.9	i	0.67	15	3	3.1	14	9	-5.5
C/C(=N\NC(=S)NC1CCCCC1)c1ccc(C)o1	/	i	/	10	/	3.0	-35	-45	-10
CC1=NN(c2ccccc2)C(=O)/C1=C\c1cc(C)n(C)c1C	8.7	i	0.67	0	4	-3.1	13	10	1.4
COc1cccc(-n2c(SCC(=O)NCC3CCCO3)nc3c([nH]c4ccccc43)c2=O)c1 (stereo not drawn)	-11	i	0.69	-4	4	3.0	-24*	-18*	-1.1*
O=C1OC(CCl)CN1Cc1ccc([N+](=O)[O-])cc1 (stereo not drawn)	2.4	i	0.67	-3	2	1.3	11	8	-0.1
CC(OC(=O)c1cc2sccc2n1C)C(=O)NCc1ccc2c(c1)OCO2 (stereo not drawn)	2.5	/	0.72	4	-2	-0.2	/	/	/
COc1cc(Cn2c(-c3ccc(O)c(OC)c3)nc3ccccc32)ccc1O	-0.2	i	0.65	23	99*	4.9	-11	-11	8.0
Cn1c(SCC(=O)NCc2ccco2)nnc1-c1c[nH]c2ccccc12	4.5	i	0.77	4	0	9.6	0	-3	-1.1
CN1CCN(C(=O)c2cc3nc(-c4ccccc4)cc(C(F)(F)F)n3n2)CC1	-5.7	/	0.69	-38	0	1.8	/	/	/
CCCc1nc2ccccc2c2nc(N)nn12	0.4	/	0.67	-4	-4	-1.9	/	/	/
CCCCC[C@H]1CN(Cc2ccc(OC)cc2)C(=O)[C@@H]1CC(=O)NCc1ccccc1	0.6	i	/	-8	-16	-4.7	-15	-42	16
O=C1C2CC=CCC2C(=O)N1c1n[nH]c(CCc2ccccc2)n1 (stereo not drawn)	0.6	/	0.65	-4	-15	4.7	/	/	/
NC(=O)C1CCCN(CCc2ccccc2)C1 (stereo not drawn)	2.6	/	0.67	3	-6	3.5	/	/	/
O=C(N/N=C/c1ccccn1)c1cc(-c2ccc(Cl)cc2)nc2ccccc12	/	i	/	24	/	-3.4	7	3	-2.5
COc1ccc(N(CC(=O)N2CCN(C)CC2)S(C)(=O)=O)cc1OC	0.2	/	0.71	5	-7	0.1	/	/	/
CCc1nc2ccccc2n1CC(=O)N1CCN(S(=O)(=O)c2cccc(C(F)(F)F)c2)CC1	1.1	/	0.71	-4	-3	-2.4	/	/	/
CNC(=O)c1cc2cc(Br)ccc2s1	3.0	i	0.69	1	/	1.7	12	3	4.1
Cc1ccc2c(c1)N(CCC(=O)NC(C)C)C(=O)CO2	2.2	/	0.66	-6	-6	0.8	/	/	/
CCN(CC)S(=O)(=O)C1CCS(=O)(=O)C1 (stereo not drawn)	5.3	/	0.67	-3	/	4.5	/	/	/
CCn1c(COc2cccc(C)c2C)nnc1SCC(=O)Nc1cc(C)on1	-0.1	i	0.67	2	-19	3.1	12	12	4.8
Cc1ccc(C(=O)CC(=O)c2ccc(C)cc2O)cc1	3.0	i	0.66	-4	20	-4.2	-61	-70	-24
Cc1c(Cl)cccc1NS(=O)(=O)c1cn(C)c(=O)n(C)c1=O	2.8	i	0.81	3	/	-0.4	2	5	-5.0
Cc1ccc(S(=O)(=O)N[C@H](C(=O)N2CCC(C(=O)NCC(=O)O)CC2)C(C)C)cc1	1.1	/	/	6	-4	0.2	/	/	/

Next part
SMILES	UCH37 inh	FGF22 binding	Ecoli growth	B2AR ag	ALR inh	HNF4A DNA FP	Ecoli rRNA inh	Ecoli rRNA inh OD600	Ecoli rRNA inh RFP
CCOc1ccc(Cn2c(SCCCCC#N)nc3c2c(=O)n(C)c(=O)n3C)cc1OCC	0.9	/	0.74	-4	29	-0.5	/	/	/
O=C(NC1CCCc2ccccc21)c1ccccc1OC(F)F (stereo not drawn)	4.7	i	0.71	-5	-10	-0.9	-9	-24	-5.2
COCCNC(=O)c1noc2c1CCc1cc(OC)ccc1-2	1.9	/	0.66	-4	-18	-2.2	/	/	/
COCCn1c(SCC(=O)Nc2ccc(Cl)c(S(=O)(=O)N(C)C)c2)nc2ccccc21	4.6	/	0.67	-6	/	2.5	/	/	/
CCOC(=O)c1cn(-c2nc(-c3ccc(Cl)c(Cl)c3)cs2)c2c(F)c(N3CCOCC3)c(F)cc2c1=O	/	/	/	-10	-7	-2.1	/	/	/
CC(C)(C)N1C(=O)c2ccccc2NC(=O)N1Cc1ccccc1	1.3	/	0.73	-3	/	3.3	/	/	/
CCC(C(=O)OCC(=O)Nc1ccccc1-c1ccccc1)c1ccccc1 (stereo not drawn)	-1.1	/	0.69	6	/	0.8	/	/	/
COc1ccc(/C=C/C(=O)NC(C)CCc2ccccc2)cc1 (stereo not drawn)	1.4	/	0.7	-7	-4	-1.0	/	/	/
CS(=O)(=O)N(CC(=O)NCC1CCCO1)c1cc(Cl)ccc1Cl (stereo not drawn)	-0.1	/	0.67	-4	1	-1.3	/	/	/
O=C(N/N=C/c1cccs1)c1ccc(NC(=O)c2ccccc2Cl)cc1	/	/	/	-3	0	0.0	/	/	/
CCCCCC(=O)NC(=S)Nc1ccc(N2CCCCC2)c(Cl)c1	6.4	/	0.73	6	12	-0.7	/	/	/
CC12CCC(=O)N1C(C(=O)Nc1nnc(SCc3ccccc3)s1)CS2 (stereo not drawn)	1.3	i	0.61	11	4	0.4	-7	-21	5.0
N#Cc1ccc(CN2CCN(C(=O)c3cc(C4CC4)nn3-c3ccccc3)CC2)cc1	0.4	i	0.68	2	/	1.9	-13	-37	5.6
CCCOc1cccc(C(=O)NC(=S)Nc2cccc(C(F)(F)F)c2)c1	3.6	i	0.71	-14	-1	-2.7	-7	-11	2.5
CCOC(=O)C1=CCN(S(=O)(=O)c2ccccc2Br)C1c1ccc(F)cc1 (stereo not drawn)	/	i	/	/	/	-0.7	-30	-61	-5.6
CCNc1c(NS(=O)(=O)c2ccc(Cl)s2)c(=O)oc2ccccc12	-15	i	0.71	2	-4	1.9	2	0	-0.6
CCn1cc(CN2CCC(n3nccc3NC(=O)C(OC)c3ccccc3)CC2)cn1 (stereo not drawn)	-1.2	i	0.71	-3	-7	4.2	10	14	0.3
O=C(OCC(=O)N1CCCc2ccccc21)c1cncc(Br)c1	0.8	/	0.67	-5	-1	-0.2	14	16	-0.3
CCOc1ccc(N(CC(=O)NCC2CCCO2)S(=O)(=O)c2ccc(OC)c(OC)c2)cc1 (stereo not drawn)	-6.3	/	0.74	5	-2	-0.5	/	/	/
O=S(=O)(Cc1cc(-c2ccccc2)no1)c1ccccc1	-0.7	/	0.69	2	/	0.1	-10	-19	-2.1
Cc1cc(N/N=C/c2ccccc2Cl)nc(NCc2ccccc2)n1	/	/	/	4	-1	2.0	/	/	/
COc1ccc(OC)c(C2CC(c3ccc(NS(C)(=O)=O)cc3)=NN2C(=O)c2ccccc2)c1 (stereo not drawn)	4.9	i	0.69	-3	-6	3.9	-1	3	-0.7
NC(=NCCc1ccccc1)c1cccc([N+](=O)[O-])c1	-0.6	i	0.67	0	-5	-2.6	10	9	-0.9
OCCN(CCO)CC(O)COc1ccc(Br)cc1 (stereo not drawn)	3.6&5.8	i	0.66&0.64	-2&8	1&-2	6.6&-2.9	6&-6	5&-2	-2.4&-3.8
Cc1ccc(CNC(=O)CCS(=O)(=O)c2ccc3c(c2)CC(C)N3C(=O)C2CC2)o1 (stereo not drawn)	1.1	i	0.73	-18	4	-3.4	-1	-2	-1.8

Three consecutive compounds from above:
SMILES	UCH37 inh	FGF22 binding	Ecoli growth	B2AR ag	ALR inh	HNF4A DNA FP	Ecoli rRNA inh	Ecoli rRNA inh OD600	Ecoli rRNA inh RFP
O=C(N/N=C/c1cccs1)c1ccc(NC(=O)c2ccccc2Cl)cc1	/	/	/	-3	0	0.0	/	/	/
CCCCCC(=O)NC(=S)Nc1ccc(N2CCCCC2)c(Cl)c1	6.4	/	0.73	6	12	-0.7	/	/	/
CC12CCC(=O)N1C(C(=O)Nc1nnc(SCc3ccccc3)s1)CS2 (stereo not drawn)	1.3	i	0.61	11	4	0.4	-7	-21	5.0

(continued)
SMILES	UCH37 inh	FGF22 binding	Ecoli growth	B2AR ag	ALR inh	HNF4A DNA FP	Ecoli rRNA inh	Ecoli rRNA inh OD600	Ecoli rRNA inh RFP
Cc1ccc(CCNC(=O)C2CCC(=O)N(Cc3cccc(F)c3)C2)cc1 (stereo not drawn)	0.5	i	0.65	5	-4	-1.4	9	5	0.7
O=C1c2cccc3c([N+](=O)[O-])ccc(c23)C(=O)N1Cc1cccnc1	-29	i	0.69	19	/	-48	94	0	-1.3
COc1ccc(-c2noc(CCC(=O)NC3CCCC3)n2)cc1	0.4	i	0.71	-8	-14	3.3	5	3	-1.3
O=C(NCc1cccc(C(F)(F)F)c1)c1ccc2c(c1)OCCO2	4.2	i	0.67	-1	-4	-1.7	-7	-14	0.6
CCN(Cc1ccccc1)C(=O)c1ccc(NC(=O)c2ccc(OC)cc2)cc1	0.0	i	0.69	4	2	3.7	-35	-32	-6.0
O=C(c1ccc(S(=O)(=O)Nc2cccc(C(F)(F)F)c2)cc1)N1CCOCC1	2.1	i	0.68	4	-11	0.9	4	11	0.6
CCN1C(=NCCc2c[nH]c3ccccc23)N[C@@H](c2ccccc2)[C@H](C(=O)OC)[C@H]1C	-6.1	i	0.76	-2	5	2.9	-11	-16	-1.4
CCOc1ccc(NC(=O)CCCn2nc(C)c3c(C)n(-c4ccccc4)nc3c2=O)cc1	-1.6	i	0.7	-9	0	0.2	16	19	5.2
O=C(CSc1ccc([N+](=O)[O-])cn1)Nc1ccc(N2CCOCC2)c(Cl)c1	5.8	i	0.67	1	/	-2.1	-9	-14	-4.5
Cc1ccc(C(=O)N2CCCC(CCC(=O)N3CCN(c4ccccn4)CC3)C2)cn1 (stereo not drawn)	-4.3	i	0.69	-7	-7	-0.2	3	5	-1.9
O=C(/C=C/c1cccc([N+](=O)[O-])c1)NC1CC2CCC1C2 (stereo not drawn)	3.1	/	0.65	-18	37	2.2	/	/	/
CCCCN(CCCC)CCNC(=O)c1ccc2nc(-c3ccccc3NC(C)=O)c(=O)[nH]c2c1	-0.3	i	0.68	-6	/	-2.7	15	17	1.6
Cc1ccc(OCCCC(=O)NC(C)c2ccccc2)c(C)c1 (stereo not drawn)	0.6	i	0.69	2	-5	-1.0	-20*	-9.7*	4.9*
O=C(COC(=O)Cn1nnc(-c2ccccc2)n1)Nc1ccccc1Br	1.0	i	0.69	13	-3	-5.3	16	11	3.7
COC(=O)C1=C(C)N=C2SCCC(=O)N2C1/C=C/c1ccccc1 (stereo not drawn)	2.3	/	/	-4	-11	-1.1	/	/	/
N#C/C(=C\c1ccccc1)C(=O)NCc1ccc(F)cc1	6.0	i	0.71	2	3	0.6	-8	-15	-0.5
COCCn1c(SCC(=O)Nc2cccnc2Cl)nc2cc(Cl)ccc2c1=O	0.5	i	0.65	-2	3	0.2	/	/	/
COc1ccc2c(c1)CCc1c(C(=O)NCCCn3ccnc3)noc1-2	2.4	/	0.71	-6	-100	2.6	/	/	/

Entries above printed as active in ALR inh.
canonical_smiles | UCH37 inh | FGF22 binding | B2AR ag | ALR inh | HNF4A DNA FP | Ecoli rRNA inh | Ecoli rRNA inh OD600 | Ecoli rRNA inh RFP
COc1cc(Cn2c(-c3ccc(O)c(OC)c3)nc3ccccc32)ccc1O | -0.2 | i | 23 | 99* | 4.9 | -11 | -11 | 8.0
